# PKD1 inh – inhibitors of human PKD1 kinase, biochemical, fluorescence polarization | Serine/threonine-protein kinase D1 (Homo sapiens), Q15139 | PKD1 kinase fluorescence polarization assay | inhibition, %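 (about 10 µM by stock and volumes)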 | 200,000 compounds, 0.056% hits;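 active = inhibition of 50% or more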;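 also: controls were vehicle for no effect and a reference inhibitor for full effect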
# RGS16-Gao HTS – modulators of RGS16 binding to Galphao, primary screen, biochemical, human proteins, multiplexed bead flow cytometry. binding response (% of control), % at 10 µM. Regulator of G-protein signaling 16 (Homo sapiens) + Guanine nucleotide-binding protein …. bead-based flow cytometry RGS16-Galphao binding, fluorescence; actives lie on both sides. 220,000 compounds, 0.38% hits. AID 1441, 2008;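 active = below 25% or above 175%, edge rows of some plates excepted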;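 also: Galphao activated by GDP with aluminum fluoride before binding; 100% = wells without compound and 0% = beads without RGS; some results beyond the cut were filed as inactive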
# Target sequence (O15492 whole entry, looked up): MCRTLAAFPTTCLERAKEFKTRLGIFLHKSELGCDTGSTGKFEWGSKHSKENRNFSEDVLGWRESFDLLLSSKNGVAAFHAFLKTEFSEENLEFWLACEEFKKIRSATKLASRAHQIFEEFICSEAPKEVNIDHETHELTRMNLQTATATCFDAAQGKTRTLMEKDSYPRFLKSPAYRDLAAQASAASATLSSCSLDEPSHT
# Target sequence (P09471 whole entry, looked up): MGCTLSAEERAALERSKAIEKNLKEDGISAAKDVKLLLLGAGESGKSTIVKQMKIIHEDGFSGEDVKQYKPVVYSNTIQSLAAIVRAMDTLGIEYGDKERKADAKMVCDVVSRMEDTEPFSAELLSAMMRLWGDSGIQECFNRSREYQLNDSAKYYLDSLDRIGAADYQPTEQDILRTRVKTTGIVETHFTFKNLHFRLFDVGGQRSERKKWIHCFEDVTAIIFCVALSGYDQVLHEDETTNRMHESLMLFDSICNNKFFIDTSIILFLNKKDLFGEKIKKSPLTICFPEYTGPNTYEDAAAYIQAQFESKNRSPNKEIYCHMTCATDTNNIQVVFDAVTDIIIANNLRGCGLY
# GALR2 ag – GALR2 receptor agonists, primary screen, cell-based | Galanin receptor type 2 (Homo sapiens), O43603 | GALR2-expressing cells, agonist activation read-out | activation, %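 (tested at 5 µM)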 | 140,000 compounds, 0.48% hits | AID 803, 2007;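 active = above mean plus 3 SD of all compounds, about 5% in these data, not always enough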;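 also: 0% = vehicle buffer wells and 100% = reference agonist at full effect; tested in CHO reporter cells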
# Target sequence (O43603 whole entry, looked up): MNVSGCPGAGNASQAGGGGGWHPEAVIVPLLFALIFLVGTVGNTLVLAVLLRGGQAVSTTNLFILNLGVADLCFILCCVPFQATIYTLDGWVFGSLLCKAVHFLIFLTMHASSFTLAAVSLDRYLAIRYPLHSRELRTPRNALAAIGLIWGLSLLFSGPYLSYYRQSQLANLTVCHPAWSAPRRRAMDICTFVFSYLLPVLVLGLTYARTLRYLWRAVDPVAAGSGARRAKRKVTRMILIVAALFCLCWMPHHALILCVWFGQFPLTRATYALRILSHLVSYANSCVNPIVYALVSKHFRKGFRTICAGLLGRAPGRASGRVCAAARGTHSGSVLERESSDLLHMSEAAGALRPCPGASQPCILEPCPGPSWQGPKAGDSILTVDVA
# HSV augment – enhancers of HSV replication in host cells, fold increase, host cell viability; HSV replication augmentation in cells; maximum fold increase; 220,000 compounds, 0.005% hits;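 active = peak rise of 1.5-fold or more in the series; inconclusive = self-fluorescent or not available for retest; tested in PC3 cells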;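 also: first round at 10 µM; read as green reporter fluorescence; hits show the peak of a series up to 25 µM; 1 = signal of infected wells without compound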
# Insulin prom inh – inhibitors of insulin promoter-driven GFP, primary screen, imaging, TRM-6 cells (human fetal islet line), eGFP reporter, cell count; reporter expression induced with tamoxifen; inhibition, % at 2 µM; 130,000 compounds, 0.9% hits;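 active = inhibition above the mean plus 3 SD, with well images judged a real hit on visual review, cut at about 60% in these data, passing the limit was not always enough; inconclusive = inhibition over the cutoff but images rejected on review; inactive = inhibition not above the cutoff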
# Insulin prom inh cell count – also measured in Insulin prom inh; calls as there; normalized cell count, %; measured here: cell count, toxicity; reference of the scale not given here;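 cells exposed to compound for 48 h; stained nuclei by imaging scaled within each plate; lower means fewer cells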
# HSV augment primary fold – also measured in HSV augment; calls as there; fold increase; compound at 10 µM; measured here: primary screen fold increase 10 uM; tested in PC3 cells;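 GFP signal in the first replicate; 1 = infected wells without compound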
# Active calls of the source: *; i = inactive; u = inconclusive; x = no result given. Not a hit list (roughly 1.3% active in at least one column).
SMILES,PKD1 inh,RGS16-Gao HTS,GALR2 ag,HSV augment,HSV augment primary fold,Insulin prom inh,Insulin prom inh cell count
Cc1ccc(NC(=O)CCNS(=O)(=O)c2ccc3c(c2)oc(=O)n3C)c(C)c1,-11,99,-3.6,i,0.97,x,x
O=C(NCC1CCCO1)c1ccc2c(=O)n(Cc3cccc(Br)c3)c(=S)[nH]c2c1 (centres undefined),-5,89,x,i,0.94,17,167
CCC(CC)C(=O)NCCc1ccc(OC)c(OC)c1,-1,103,-0.8,i,0.94,-7,83
CCc1ccc(C(=O)NNC(=S)Nc2ccc(S(N)(=O)=O)cc2)s1,-2,104,x,i,0.92,x,x
COCCSc1nnc(NC(=O)c2ccc3c(c2)OCO3)s1,-6,98,x,i,0.99,x,x
Cc1onc(-c2ccccc2Cl)c1-c1nc(-c2ccccn2)no1,-8,102,-0.1,x,x,x,x
Cc1ccc(-c2cc(C(F)(F)F)c(C#N)c(SCCC#N)n2)o1,-7,96,7.0,i,0.96,-162,129
S=C(NCC1CCCO1)NC1CCCCC1 (centres undefined),-2,97,x,i,0.91,x,x
COc1ccc(C=O)cc1COc1ccc([N+](=O)[O-])c(C)c1,-4,96,x,i,0.89,x,x
C/C(N)=C(/C#N)C(=O)CSc1nnnn1-c1ccccc1,-4,95,-3.9,i,0.79,-3,257
CCCCC(=O)Nc1cccc(NC(=S)NC(=O)COc2ccccc2Cl)c1,2,100,-1.8,i,0.92,4,129
CCCc1[nH]nc2c1C(C1CC=CCC1)C(C#N)=C(N)O2 (centres undefined),-4,101,-1.4,i,0.69,0,127
CCCCn1c(SCC(=O)N2CCOCC2)nnc1-c1ccoc1C,-9,112,-3.5,i,0.86,29,141
CC(=O)NS(=O)(=O)c1ccc(Nc2ccc([N+](=O)[O-])c3nonc23)cc1,x,89,x,u,x,x,x
Cc1ccc(OCC(=O)N(Cc2cccs2)C2CCS(=O)(=O)C2)cc1C (centres undefined),x,100,x,i,1,x,x
O=C(NCc1ccccc1)c1ccc2c(=O)n(CCCN3CCCC3=O)c(=S)[nH]c2c1,-2,66,-2.2,i,0.88,21,84
Cc1ccc(S(=O)(=O)Nc2nc3ccc(S(C)(=O)=O)cc3s2)cc1,-8,102,-1.7,i,0.9,x,x
CCOC(=O)c1c(NC(=O)CSc2nnnn2-c2ccc3c(c2)OCO3)sc(C)c1C,5,81,-1.5,i,0.77,x,x
COc1cc(/C=C/C(=O)O)cc(S(=O)(=O)N2CCc3ccccc32)c1OC,-4,98,x,i,0.97,x,x
Cc1cc(C)n(CCC(=O)N/N=C/c2ccc(O)cc2O)n1,-4,100,-0.7,i,0.98,x,x
COc1ccc(N2CCN(Cc3nc4c(c(=O)n(C)c(=O)n4C)n3C(C)C(C)=O)CC2)cc1 (centres undefined),-3,210,-0.9,i,1,62,56
Cc1nc(NCCCN2CCOCC2)c2oc3ccccc3c2n1,-6,106,-1.9,i,0.95,56,50
Cc1nc2cc(C(=O)N3c4ccccc4CC3C)ccc2s1 (centres undefined),-6,98,x,i,0.83,x,x
Cc1nc2ccccc2c2c1C(=O)N(c1ccc(C(=O)O)cc1)C2=O,-9,100,x,i,1,33,90
Nc1c(-c2ccccc2)cnn1-c1cccc(C(F)(F)F)c1,6,100,-0.8,i,0.98,14,120
C/C=C/CSc1nc2c(c(=O)[nH]c(=O)n2C)n1Cc1ccc(C)cc1,0,99,-0.8,i,0.85,x,x
COCCn1c(C(C)C)nc2ccccc21,x,86,x,i,1,x,x
O=C(Cc1c(F)cccc1Cl)Nc1ncc([N+](=O)[O-])s1,-5,99,x,i,0.99,x,x
COc1ccc(N2CSC3=C(C#N)C(c4cc(OC)ccc4OC)CC(=O)N3C2)c(OC)c1 (centres undefined),-5,163,-2.1,i,0.95,x,x
COc1cc(NC(=O)CN(C)C2CCCCC2)c(C)cc1[N+](=O)[O-],3,101,0.4,i,0.99,-9,107

# Random excerpt: seven compounds from above
SMILES,PKD1 inh,RGS16-Gao HTS,GALR2 ag,HSV augment,HSV augment primary fold,Insulin prom inh,Insulin prom inh cell count
COc1cc(/C=C/C(=O)O)cc(S(=O)(=O)N2CCc3ccccc32)c1OC,-4,98,x,i,0.97,x,x
O=C(NCC1CCCO1)c1ccc2c(=O)n(Cc3cccc(Br)c3)c(=S)[nH]c2c1 (centres undefined),-5,89,x,i,0.94,17,167
Cc1nc(NCCCN2CCOCC2)c2oc3ccccc3c2n1,-6,106,-1.9,i,0.95,56,50
Cc1ccc(S(=O)(=O)Nc2nc3ccc(S(C)(=O)=O)cc3s2)cc1,-8,102,-1.7,i,0.9,x,x
CCc1ccc(C(=O)NNC(=S)Nc2ccc(S(N)(=O)=O)cc2)s1,-2,104,x,i,0.92,x,x
CCC(CC)C(=O)NCCc1ccc(OC)c(OC)c1,-1,103,-0.8,i,0.94,-7,83
Cc1cc(C)n(CCC(=O)N/N=C/c2ccc(O)cc2O)n1,-4,100,-0.7,i,0.98,x,x

# Other entries
SMILES,PKD1 inh,RGS16-Gao HTS,GALR2 ag,HSV augment,HSV augment primary fold,Insulin prom inh,Insulin prom inh cell count
Cc1ccc(-c2csc3nc4cc(C(N)=O)ccc4c(=O)n23)cc1,x,96,x,i,0.87,x,x
CCOCCCNC(=O)c1c[nH]c2ccc(S(=O)(=O)Nc3cccc(OC)c3)cc2c1=O,-2,105,-2.8,i,0.94,19,97
CCn1cc(C(=O)NCCCN2CCN(C)CC2)c(=O)c2cc(S(=O)(=O)N3CCc4ccccc4C3)ccc21,-4,151,x,x,x,64,66
C/C(=N\NC(N)=S)C12CC3CC(CC(C3)C1)C2,1,101,-1.3,i,0.88,40,42
COc1ccc(OC)c(S(=O)(=O)Nc2cnc3ccccc3c2)c1,-3,107,-0.9,i,0.96,-11,54
O=c1[nH]c(N2CCN(c3ccccc3)CC2)nc2c1CCC2,-3,100,-3.4,i,0.82,-6,177
CCC(C)(C)n1nnnc1C(c1ccccc1OC)N1CCSCC1 (centres undefined),3,100,-1.7,i,0.79,-65,151
N#Cc1c(NC(=S)NC(=O)c2ccccc2)sc2c1CCC2,1,99,0.6,x,x,x,x
COC(=O)c1[nH]c2ccccc2c1NC(=O)c1c(F)cccc1F,x,97,x,i,1,x,x
COC(=O)c1cc(Br)c(=O)n(CC(C)C)c1,3,99,0.8,i,1,x,x
O=C(Nc1ncc(Cc2cccc([N+](=O)[O-])c2)s1)c1ccco1,1,105,x,i,0.89,24,114
Cc1ccnc(NS(=O)(=O)c2cc(C(F)(F)F)ccc2Cl)c1,x,92,x,i,1.1,x,x
CCn1c(/C=C/N(C)c2ccccc2)[n+](CC)c2ccc(Cl)cc21,-6,71,-2.0,x,x,-7,104
O=C1CSC(c2ccccn2)N1c1ccccc1F (centres undefined),-5,108,x,i,0.97,x,x
COc1ccc(-c2cc3nc(C)c(CCC(=O)NCc4ccco4)c(C)n3n2)c(OC)c1,-9,80,-1.6,i,0.84,-42,61
O=C(CN1C(=O)c2ccccc2C1=O)NCC1COc2ccccc2O1 (centres undefined),3,105,4.2,i,0.94,48,136
CCOC(=O)Cc1csc(NS(=O)(=O)c2ccc3ccccc3c2)n1,11,46,-1.1,i,1,31,75
CC(C)Cn1nnc2c(=O)oc3ccccc3c21,-15,103,-0.4,x,x,-71,50
Cc1ccc(S(=O)(=O)N2CCC(C(=O)N[C@H](C(=O)NCc3ccco3)C(C)C)CC2)cc1,5,97,-2.7,i,0.89,13,60
CCNc1nc(N)c(C(=O)C23CC4CC(CC(C4)C2)C3)s1,x,100,x,i,0.88,x,x
CCn1nnnc1SCC(=O)c1cc(Cl)ccc1OC,-7,100,x,i,0.89,x,x
Cc1ccccc1NC1C=CS(=O)(=O)C1 (centres undefined),-4,105,-1.9,i,0.9,50,126
COc1ccc(NS(=O)(=O)c2ccc(OCC(=O)N3CCCC3)cc2)cc1,-4,35,4.0,i,1.1,-70,121
COc1ccc(OC)c(/C=C/C(=O)Nc2cccc(S(=O)(=O)N3CCCC3)c2)c1,2,102,x,i,1.1,-28,132
CC(NC(=O)NCc1cccnc1)(C(F)(F)F)C(F)(F)F,-7,105,-1.5,i,0.91,x,x
OCC1(Cc2cccc(Cl)c2)CCCN(Cc2cn[nH]c2C2CCCCC2)C1 (centres undefined),-5,103,x,i,0.91,x,x
Fc1ccc(-c2nnc3ccccn23)cc1,-7,110,x,i,1.2,10,94
N/C(=N/S(=O)(=O)c1ccccc1)c1cccc([N+](=O)[O-])c1,-1,103,x,i,1.1,x,x
CSc1nnc(Cn2c(=O)sc3ccccc32)n1C,3,99,-0.6,i,1.3,x,x
Cc1noc(C)c1COC(=O)COc1ccc(-c2ccccc2)cc1,x,98,x,i,1.1,x,x

# Profiles, looked up by structure. Order of values: PKD1 inh | RGS16-Gao HTS | GALR2 ag | HSV augment | HSV augment primary fold | Insulin prom inh | Insulin prom inh cell count
# O=C(CN1C(=O)c2ccccc2C1=O)NCC1COc2ccccc2O1 (centres undefined) across the screens: 3 | 105 | 4.2 | i | 0.94 | 48 | 136
# CSc1nnc(Cn2c(=O)sc3ccccc32)n1C across the screens: 3 | 99 | -0.6 | i | 1.3 | x | x
# COc1ccc(OC)c(/C=C/C(=O)Nc2cccc(S(=O)(=O)N3CCCC3)c2)c1 across the screens: 2 | 102 | x | i | 1.1 | -28 | 132

# Remaining list, next part.
SMILES,PKD1 inh,RGS16-Gao HTS,GALR2 ag,HSV augment,HSV augment primary fold,Insulin prom inh,Insulin prom inh cell count
CC(c1ccccc1F)n1cc(C(=O)NCCCn2ccnc2)nn1 (centres undefined),-14,102,-2.0,i,1.1,54,93
COC(=O)c1ccc(NC(=O)CCN2C(=O)CSC2=O)cc1,4,104,x,i,1.4,x,x
COCCNC(=S)N/N=C(\C)CCc1ccc2c(c1)OCO2,0,100,x,i,1,x,x
COCCNC(=O)C(c1ccc(C)o1)N(Cc1ccco1)C(=O)c1snc(C(N)=O)c1N (centres undefined),-6,105,-1.8,i,1,0,109
Cc1nc(NC(=O)C(C)Oc2cccc(Cl)c2)sc1C(=O)N(C)C (centres undefined),0,88,-0.7,i,0.98,29,127
O=C(O)c1cc(S(=O)(=O)N2CCN(c3ccccn3)CC2)ccc1Cl,-1,106,x,i,0.97,10,153
CC(C)(C)C(=O)/C=c1\[nH]c(=O)/c(=C\c2ccc(C#N)cc2)s1,-8,95,-1.1,i,0.88,x,x
CCc1cc2ccc(OC)cc2nc1SCC(=O)Nc1cc(C)on1,-3,95,-2.1,i,0.7,x,x
Cc1ccc(NC(=O)CNC(c2ccccc2)c2ccccc2)c(F)c1,-6,104,-0.7,i,0.91,-16,126
O=C(Cc1cccs1)Nc1nc2c(ccc3ccccc32)s1,5,53,-4.0,i,1,11,134
CCOc1ccc(C(=O)N(c2ccccn2)C2CCCCC2)cc1,-3,97,x,i,1.1,x,x
Cc1ccc2c3c(c(SCC(=O)Nc4nonc4C)nc2c1)CCCC3,5,81,0.1,i,1,x,x

# Assay outcomes from PubChem.
